gsp agonist = activates gsp, the McCune-Albright syndrome mutation | 0.13% of 340,000 active | gsp mutant cells, cAMP HTRF, 30 min; control for the full effect not named in the record | Potency, µM (doses to about 76.9 µM), without a hit: top-dose activation (cAMP increase), hits mostly activators | AID 624287; active = well fitted activation curve with a large enough effect; inconclusive = small, poorly fitted or top-dose-only effect, or another doubt; inactive = no such curve, though single readings can be large or run the other way; cell line not stated here;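 also: phosphodiesterase inhibitor Ro 20-1724 added with compounds to block cAMP breakdown; potency is read from the fitted curve at half-maximal effect; nearly all actives have a fitted effect of over 60% in size; about a fifth of the inactives were tested at one dose only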
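Cells in DMEM/10% FBS with G418 were pretreated with compounds in DMSO plus […] (300 uM stock) for 30 min at 37C. cAMP was measured by HTRF (cAMP-d2 plus anti-cAMP antibody-K) after 30 min at room temperature.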
D2 ag = activates the human D2 dopamine receptor. 0.084% of 360,000 active. P14416. DiscoveRx PathHunter D2 beta-arrestin, luminescence, 90 min; 100% = 57 uM dopamine signal. activation, % (test concentration not listed); in the data active = activation above about 40%; inconclusive = about 15% to 40%; inactive = below about 15%; also: compound concentration not given in the record; the text of the record calls up to 30% inactive
Target sequence (P14416 whole entry, looked up): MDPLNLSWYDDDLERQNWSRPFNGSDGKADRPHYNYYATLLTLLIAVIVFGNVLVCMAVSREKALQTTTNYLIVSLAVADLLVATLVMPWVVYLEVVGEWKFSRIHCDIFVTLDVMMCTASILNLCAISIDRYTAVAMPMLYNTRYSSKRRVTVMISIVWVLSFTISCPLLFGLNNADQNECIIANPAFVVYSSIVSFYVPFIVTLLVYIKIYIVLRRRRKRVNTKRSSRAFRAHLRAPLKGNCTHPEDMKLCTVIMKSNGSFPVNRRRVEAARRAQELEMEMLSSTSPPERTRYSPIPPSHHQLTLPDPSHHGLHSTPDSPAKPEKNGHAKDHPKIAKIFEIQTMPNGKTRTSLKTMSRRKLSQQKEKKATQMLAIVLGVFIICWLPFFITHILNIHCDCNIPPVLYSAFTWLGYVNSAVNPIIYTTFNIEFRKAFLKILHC
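Agonist mode: compounds alone added to overnight-plated D2 PathHunter cells for 90 min at 37 C, with 57 uM final dopamine (EC100) defining full response. Beta-arrestin recruitment detected by chemiluminescent reagent, read after 1 h at ambient temperature.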
ClpP mod = qHTS Assay for Activators of ClpP. ATP-dependent Clp protease proteolytic subunit (Bacillus subtilis (strain 168)), P80244. purified B. subtilis ClpP, FRET peptide cleavage, 20 min. Potency, µM (series often up to 57.5 µM), without a hit: at the top dose activity change, negative = active. 1.9% of 340,000 active; active = well fitted falling curve with a large enough effect; inconclusive = small, poorly fitted or top-dose-only effect; inactive = no such curve, though single readings can be large or run the other way; also: potency is read from the fitted curve at half-maximal effect; the source files actives as falling curves though it sought activators and does not explain the sign; nearly all actives have a fitted effect of over 65% in size; many hits overshoot -100%
Target sequence (P80244 whole entry, looked up): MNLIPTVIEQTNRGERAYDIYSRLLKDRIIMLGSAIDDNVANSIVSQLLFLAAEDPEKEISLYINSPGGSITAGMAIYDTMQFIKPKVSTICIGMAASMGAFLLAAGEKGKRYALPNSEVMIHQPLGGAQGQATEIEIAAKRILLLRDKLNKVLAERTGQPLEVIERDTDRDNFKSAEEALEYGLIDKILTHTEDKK
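ClpP 10 microg/mL final, pH 8 Tris/KCl buffer with BSA, glycerol, Tween-20; compound pinned in; FRET-FV substrate; RT 20 min; Ex320/Em430; ΔFRET vs ADEP 5.8 microM, DMSO, no enzyme.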
gsp antag = gsp mutant antagonism; gsp-mutant cells, cAMP HTRF, 30 min; control for the full effect not named in the record; Potency, µM (top dose mostly 76.9 µM), without a hit: at the top dose activity change, negative = inhibition, usual class: inhibitors; 0.4% of 340,000 active; active = falling curve of any shape with a large fitted effect; inconclusive = falling curve, mostly with a smaller effect; inactive = flat or rising curve; cell line not stated here;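 also: intracellular cAMP measured with PDE inhibitor Ro 20-1724 present during compound exposure; potency is read from the fitted curve at half-maximal effect; % is scaled to controls: 0 for no effect and ±100 for the full control effect; nearly all actives have a fitted effect of over 65% in size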
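HTRF cAMP measurement after 30 min RT detection following 30 min, 37C compound treatment alongside […] (added as 300 uM solution) in G418-selected cells seeded at 2000/well and grown 16–24 h.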
Menin-MLL FL inh = menin-MLL binding inhibition, fluorescein peptide; FP activity change, % at 61.4 µM; 290,000 tested, under 10 active; Fluorescence polarization, fluorescein-MLL peptide displacement from menin; inconclusive = falling polarisation curve, or a change in total fluorescence; inactive = total fluorescence flat and polarisation flat or rising; no compound was filed as active; the % refers to the polarisation; negative = inhibition;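 also: % of control where 0% means no effect; inhibitors lower the polarisation; unlabelled MLL peptide was the positive control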
Sfp PPTase inh = Sfp phosphopantetheinyl transferase inhibition. Q9F4F7. Biochemical Sfp PPTase activity, qHTS. Potency, µM, inactives show max response, negative = inhibition, actives largely listed as inhibitors. 3.5% of 310,000 active; active = well fitted inhibition curve with a large enough effect; inconclusive = small, poorly fitted or top-dose-only effect, or another doubt; inactive = no such curve, though single readings can be large or run the other way;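 also: the enzyme is Sfp with the accession as filed and its product quenches rhodamine fluorescence; potency is read from the fitted curve at half-maximal effect; 0% = enzyme reaction without inhibitor and -100% = no enzyme wells; top concentration of the series not given in the record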
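Reaction rates are the 30-min fluorescence difference (ex 525, em 598 nm) in wells containing 15 nM Sfp, 5 uM rhodamine-CoA and 12.5 uM BHQ-2-YbbR at pH 7.6 with 10 mM MgCl2.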
PINK1 modulator = changes PINK1 expression; PINK1 immunofluorescence, high-content cytometry, 24 h; 0.2% of 410,000 active; Potency, µM (series often up to 76.6 µM), without a hit: at the highest dose activation (PINK1 increase), actives largely listed as activators; active = well fitted activation curve with a large enough effect; inconclusive = small, poorly fitted or top-dose-only effect; inactive = flat fitted curve, though single readings scatter; cell line not stated here;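 also: potency is read from the fitted curve at half-maximal effect; % of control where 0% means no effect; nearly all actives have a fitted effect of over 65% in size; a mitochondrial uncoupler was the plate control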
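Measures PINK1 amount and localization on or inside mitochondria by immunofluorescence. Stable cells get compounds at 5 concentrations for 24 hours before fixation and staining; CCCP controls included.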
An asterisk follows results filed as active; ? = inconclusive; . = not tested or not shown; & = joins results of further samples; [ ] = remark or other dose.

SMILES	gsp agonist	D2 ag	ClpP mod	gsp antag	Menin-MLL FL inh	Sfp PPTase inh	PINK1 modulator
CCOc1cc(C(c2c(C)[nH][nH]c2=O)c2c(C)[nH][nH]c2=O)ccc1O	3.1%	-0.1	-0.9%	2.2%	2.5	6.4%	1.3%
O=C(c1ccco1)N1CCN(Cc2nc3ccc([N+](=O)[O-])cc3c(=O)n2-c2ccccc2F)CC1	?	1.9	-2.4%	-17.0%	1.9	-11.0%	-2.8%
CCOC(=O)[C@H](CCc1ccccc1)N[C@H]1CCc2ccccc2N(CC(=O)O)C1=O	.	-2.9	0.2%	0.1%	3.4	-15.2%	5.1%
FC(F)(F)c1cc(CCN2C(=S)NC[C@@H]2Cc2ccccc2)cc(C(F)(F)F)c1	-4.9%	-0.1	-0.3%	-8.3%	-4.5	20.0%	-1.9%
CC(C)NC(=S)N=Nc1c(O)[nH]c2ccc([N+](=O)[O-])cc12	12.1%[15.4 µM]	-0.3	.	-87.9%	-1.9	16.0%	13.4%
CN(Cc1ccccc1)c1nc(-c2ccc([N+](=O)[O-])cc2)nc2ccccc12	-67.2%[inhibitor]	-2.0	0.7%	2.8%	9.5	8.3%	1.7%
O=C(CN1CCOCC1)Nc1ccc(N2CCN(c3ccccc3)CC2)c(F)c1	-20.5%[15.4 µM]	-2.0	.	11.2%	-3.3	14.6%	4.3%
O=C1CSC(c2ccccn2)N1c1ccc2ccccc2c1 (centres undefined)	-17.3%	-0.7	-3.9%	-2.7%	-0.3	14.4%	.
Cc1cc(C)c(OCCCn2ccnc2)c(C)c1	17.6%	-0.5	-0.8%	2.0%	-2.8	15.4%	1.1%
CCC(C)NC(=O)c1ccc2c(SCC(=O)O)c3c(nc2c1)CCCC3 (centres undefined)	1.0%	-2.5	-3.5%	10.0%	-0.5	1.3%	13.7%
Cc1cc2ccccc2cc1CN1CCOCC1	-0.4%	-1.6	-1.6%	-1.0%	-0.8	14.4%	.
C=CCc1ccc(OCCN2CCc3ccccc3C2)c(OC)c1	-2.9%[15.4 µM]	-5.6	.	8.4%	-0.4	?	11.6%
OC(COc1ccc2c(c1)OCO2)CN1CCCCC1 (centres undefined)	-19.2%	-18.7	1.1%	16.2%	-1.4	4.6%	0.5%
COc1ccc(/C=C/C(=O)Nc2nonc2NC(C)=O)cc1	-16.8%	0.4	-17.0%	3.3%	-2.5	38.7%[activator]	2.4%
O=C1CCCN1CC(O)CS(=O)(=O)c1ccccc1 (centres undefined)	?	-0.8	-0.7%	5.6%	1.9	8.1%	5.5%[38.3 µM]
N=C1/C(=C\c2ccc(-c3cc(Cl)cc(Cl)c3)o2)C(=O)N=C2SC=C(c3ccccc3)N12	19.3%	-2.4	3.1%	16.9%	?	-4.6%	?
COc1cc(/C=N/NC(=O)c2sc3nc(C)cc(C)c3c2N)ccc1O	-3.7%[15.4 µM]	-2.6	.	5.1%	0.8	6.3%	11.1%
CCCCC1=CC2=CC(=O)C(C)(OC(=O)CC)C(=O)C2=CN1Cc1ccc(OC)cc1 (centres undefined)	.	3.1	-2.7%	-1.3%	-3.3[11.7 µM]	-13.3%&14.6%	2.1%
O=C(NC1CCCCNC1=O)c1ccccc1 (centres undefined)	0.7%[15.4 µM]	-2.4	.	15.8%	-2.5	14.4%	0.6%
COc1cc2c3c(c1)C(C)=CC(C)(C)N3C(=O)C2=O	3.0%[15.4 µM]	-6.7	.	19.8%	3.2	10.3%	0.0%
O=S(=O)(N1CCCCC1)N1CCN(c2ccc(F)cc2)CC1	?	0.4	-2.1%	9.6%	-0.8	11.2%	0.1%[38.3 µM]
CCCOc1cccc(NC(=O)c2cc(C)oc2C)c1	26.8%	1.1	-2.5%	-12.7%	2.7	7.8%	0.5%
Cc1ccc2cc(CCNC(=O)c3cccc([N+](=O)[O-])c3)c(=O)[nH]c2c1	-2.8%	-3.7	-0.5%	-7.0%	0.4	-24.5%	0.7%
CCC1(c2ccccc2)NC(=O)N(CC(=O)NCCN2C(=O)S/C(=C\c3cccnc3)C2=O)C1=O (centres undefined)	15.8%	-3.6	-2.8%	-6.3%	.	.	-1.4%
NS(=O)(=O)c1ccc(CCNC(=O)c2cc(-c3ccccc3)nc3ccccc23)cc1	1.9%	-1.1	-29.5%	-20.9%	2.8	6.7%	0.8%
O=C(COC(=O)c1ccc(S(=O)(=O)N2CCCC2)cc1)Nc1cccc(Br)c1	40.9%	-3.3	-2.2%	-6.0%	.	.	-0.7%
CC(=O)Oc1ccc(N2C(=O)C3C(C2=O)C2C=CC3C23CC3)cc1[N+](=O)[O-] (centres undefined)	9.3%	-5.5	-0.1%	-25.0%	-1.3	-16.6%	3.5%
COc1ccc(-n2ncc3c2CC(C)(C)CC3NC(=O)CCn2nc(C)cc2C)cc1 (centres undefined)	-1.4%	-1.7	-0.2%	-9.6%	.	9.3%	-0.3%
CCc1cccc(C)c1N1C(=O)CC(C)(C)CC1=O	-22.2%	-5.2	0.5%	3.4%	1.1	7.7%	6.0%
O=C(Cc1ccc(S(=O)(=O)N2CCOCC2)s1)NCCC(c1ccccc1)c1ccccc1	-55.4%	0.5	-24.0%	-15.4%	0.0	18.5%	-1.6%
COc1ccc(OCCSc2nnc(Cc3cccc4ccccc34)n2N)cc1	0.0%	-1.8	2.5%	-3.0%	1.0	10.6%	1.5%
COCCCn1c(=O)c2ccccc2n(CC(=O)NCCC2=CCCCC2)c1=O	-3.7%[15.4 µM]	-7.2	-0.3%	6.8%	-0.3	-1.0%	1.0%
CC(=O)c1ccc(N2CCN(C(=O)c3cc4c(-c5ccccc5F)nn(C)c4s3)CC2)cc1	?	-2.2	?	-24.8%	1.1	9.4%	0.3%
O=C(O)c1ccc(/C=N/NC(=O)c2ccc3c(c2)OCCO3)cc1	16.2%	-2.5	0.9%	0.7%	.	9.2%	0.1%
COC(=O)[C@@]1(Cc2ccc(OC)cc2)[C@H]2c3cc(C(=O)N4CCCC4)n(CCN4CCOCC4)c3C[C@H]2CN1C(=O)c1ccccc1	.	.	0.0%	.	-10.3	14.2%	0.2%
CCCS(=O)(=O)N1CCN(CCCc2ccccc2)CC1	-4.6%	1.7	-0.3%	-3.1%	0.3	-10.6%	-0.1%[38.3 µM]
CN(C(=O)COc1ccccc1C(=O)NCCOc1ccccc1)c1ccccc1	-17.6%	?	-3.1%	35.5µM*	2.6	-9.0%	-0.6%
Cc1onc(-c2c(Cl)cccc2Cl)c1C(=O)ONC(=O)c1ccccc1	-37.4%[inhibitor]	-6.5	-0.7%	6.5%	-3.3	15.6%	2.3%
Cc1ccc(NC(=O)CCc2nc3sc4c(c3c(=O)[nH]2)CCCC4)nc1	5.2%[15.4 µM]	-4.9	-1.1%	-5.0%	.	.	4.3%
COc1ccc(CNC(=O)c2ccc(Cl)c(S(=O)(=O)N3CCOCC3)c2)cc1OC	15.4%	0.9	0.8%	-23.8%	.	.	0.9%
CN1CCc2c(OCc3ccc(F)cc3)cccc2C1=O	-0.8%[15.4 µM]	0.4	.	-15.7%	-1.2	2.4%	5.9%
Cc1ccc(NC(=O)CN2CCOCC2)cc1C	5.4%[15.4 µM]	-2.6	0.2%	16.9%	1.4	9.4%	-0.4%
COc1cccc2c1Oc1ncccc1N(C(=O)CCC(=O)NCc1cccc(C)c1)C2	4.5%	-4.8	-1.2%	-1.4%	.	19.5%	-0.5%
CCOP(=O)(/C(C#N)=C(/O)c1ccccc1)c1ccccc1 (centres undefined)	12.7%[15.4 µM]	-1.4	.	2.5%	0.0	3.5%	0.5%
Cc1cccc2c(N=O)c(O)[nH]c12	0.5%	-3.3	-0.3%	6.4%	4.1	5.7%	3.3%
CSc1nc2c(c(=O)[nH]1)C(c1cccc(Cl)c1)CC(=O)N2 (centres undefined)	-29.7%[15.4 µM]	-1.7	.	6.9%	-0.8	3.3%	3.9%
O=C(CN1C(=O)c2ccccc2C1=O)Nc1cc(C(=O)O)cc(C(=O)O)c1	-24.2%	-4.4	-11.1%	2.6%	7.9	1.7%	-0.4%
CCC(=O)Nc1ccc(S(=O)(=O)Nc2ccccn2)cc1	-2.3%[15.4 µM]	0.4	.	-2.3%	-0.5	13.6%	0.1%
COc1ccc(Cc2nc(=S)[nH][nH]2)cc1Br	-2.4%[15.4 µM]	1.1	.	.	1.5	35.5µM*	-1.3%
Nn1c(SCC(=O)Nc2ccc(S(N)(=O)=O)cc2)nnc1-c1ccco1	-25.7%	-0.5	-0.2%	2.0%	2.6	15.9%	0.3%
Cc1nnsc1C(=O)N1CCCC(N2CCN(c3ccc(F)cc3)CC2)C1 (centres undefined)	-27.3%	-2.3	-0.7%	12.2%	.	11.7%	2.3%
Cc1cc2ncn(C(=O)N3CCCCCC3)c2cc1C	-24.8%	-2.2	-0.5%	-1.6%	-0.3	16.4%	2.3%
COc1ccc(-c2noc(CCC(=O)NCCc3ccccc3)n2)cc1	17.6%[15.4 µM]	-1.9	-1.7%	-11.8%	0.9	-0.9%	2.2%
O=C(CC1(O)C(=O)Nc2ccccc21)c1cccc(-n2cccc2)c1 (centres undefined)	-0.8%	-3.0	-1.1%	3.6%	-3.0	4.4%	-0.6%
CC(=O)Nc1ccc(NS(=O)(=O)c2cc(Cl)ccc2Cl)cc1	-2.0%[15.4 µM]	2.9	.	-4.3%	1.4	2.3%	1.0%
CC(C)Oc1ccc(N2CC(C(=O)NC3=NCCS3)CC2=O)cc1 (centres undefined)	4.0%	-5.2	-4.7%	5.3%	-4.4	18.8%	4.3%
NC(=O)c1c(NC(=O)c2cccc(N3C(=O)CCC3=O)c2)sc2c1CCCCC2	15.7%[15.4 µM]	-2.7	-24.5%	-14.5%	.	4.3%	0.1%
Nc1ccccc1SCC(=O)Nc1ccc2c(c1)OCCO2	?	-4.8	.	11.4%	.	-31.0%	-0.8%
Cc1ccc(C)c(N(CC(=O)N/N=C/c2ccc(-c3ccc([N+](=O)[O-])cc3)o2)S(=O)(=O)c2ccccc2)c1	10.9%	-1.0	-3.7%	-13.5%	5.3	11.9%	7.6%[38.3 µM]
Cc1cc(C)n2nc(SCC(=O)NC3(C#N)CCCCC3)nc2n1	?	-4.5	-1.2%	.	.	.	0.3%
CC1CCN(c2c(NCc3ccc(C(=O)NCC4COc5ccccc5O4)cc3)c(=O)c2=O)CC1 (centres undefined)	7.1%	-4.7	-1.6%	-5.2%	.	.	2.8%

From PubChem
